ALR H2O2 inh – inhibitors of human ALR sulfhydryl oxidase, primary screen, biochemical, H2O2 detection, HRP-luminol luminescence, single point; inhibition, % (concentration not given with the values); FAD-linked sulfhydryl oxidase ALR (Homo sapiens), P55789; purified ALR, DTT oxidation; 290,000 tested, 3.8% active; AID 485317, 2010;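 active = mean and each replicate at 75% or more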;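 note: stock transfer was 7.5 nL into about 7.5 µL; 0% = neutral wells and 100% = wells with inactivated enzyme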
Ecoli growth – E. coli growth inhibition, primary screen, OD600; OD600 absorbance (no concentration beside the values); Escherichia coli growth, 23 h; stronger effect = lower value; 330,000 tested, 0.21% active;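 active = OD600 absorbance below the run mean of sample wells minus 3.6 SD, in any replicate, cut at about 0.56 in these data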;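 note: stock transfer was 300 nL into about 60 µL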
Ecoli rRNA inh – reduced GFP signal of wild-type E. coli, primary screen, bacterial rRNA inhibitor project, GFP/RFP fluorescence, OD600, single point. E. coli WT GFP vs humanized-ribosome RFP mutants, 24 h; stronger effect = lower value; DMSO median 0, no signal -100. GFP signal change (wild-type ribosome), % (concentration not given with the values). 350,000 tested, 1.6% active. AID 720706, 2013;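 active = significant combined selectivity score with lowered wild-type GFP, culture density cut under 30%, mutant RFP and density less affected; inactive = any of these conditions unmet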; note: one replicate is shown; some compounds called inactive have numbers as strong as hits
FGF22 binding – binders of human FGF22 protein, primary screen, FGF22 synaptogenesis inhibitor project, biophysical, thermal shift, single point. Fibroblast growth factor 22 (Homo sapiens), Q9HCT0. recombinant FGF22 thermal shift, SYPRO orange fluorescence; percent of sucrose octasulfate shift, DMSO zero. calls only at 9.99 µM. 340,000 tested, 1.5% active. AID 651658, 2012;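 active = melting point raised past a set limit in the mean and every replicate; three in four hits are not shown here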
AF4-AF9 inh – inhibitors of AF4 peptide binding to AF9, primary screen, biochemical, AlphaScreen, biotin-AF4 peptide, FLAG-AF9, single point; inhibition, % at 10 µM; Protein AF-9 (Homo sapiens), P42568; 350,000 tested, 0.47% active;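 active = every replicate reaching a set inhibition limit, whatever the replicate mean, cut at about 25% in these data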;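 note: 0% = plate neutral control median and 100% = total signal loss; the record names both 10 and 1 µM as test concentration; the first replicate is given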
Target sequence (P42568 whole entry, looked up): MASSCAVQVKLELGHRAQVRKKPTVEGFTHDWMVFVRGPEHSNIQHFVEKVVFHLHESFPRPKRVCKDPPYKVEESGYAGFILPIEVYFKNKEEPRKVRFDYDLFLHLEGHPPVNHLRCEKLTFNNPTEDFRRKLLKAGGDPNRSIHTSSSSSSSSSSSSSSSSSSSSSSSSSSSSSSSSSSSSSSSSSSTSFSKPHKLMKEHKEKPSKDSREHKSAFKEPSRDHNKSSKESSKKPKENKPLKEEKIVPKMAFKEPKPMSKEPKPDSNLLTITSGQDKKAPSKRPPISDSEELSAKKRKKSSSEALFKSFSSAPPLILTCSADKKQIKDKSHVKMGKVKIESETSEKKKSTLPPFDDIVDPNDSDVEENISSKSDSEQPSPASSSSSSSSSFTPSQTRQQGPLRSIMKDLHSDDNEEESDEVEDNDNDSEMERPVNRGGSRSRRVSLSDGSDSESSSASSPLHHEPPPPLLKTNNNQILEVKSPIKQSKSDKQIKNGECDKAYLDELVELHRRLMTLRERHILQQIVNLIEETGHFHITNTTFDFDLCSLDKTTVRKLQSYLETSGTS
HNF4A DNA FP – change in binding of human HNF4A to DNA, primary screen, biochemical, fluorescence polarization, FITC-DNA; activity change, % at 10 µM; Hepatocyte nuclear factor 4-alpha (Homo sapiens), P41235; 1 h; 360,000 tested, 0.3% active; in the data active = activity change above about 30%, passing the limit was not always enough;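 note: controls were the assay level and a saturating level of protein; the project sought stronger binding though the title names inhibitors; some compounds called inactive have numbers as strong as hits; positive values seem to mean higher polarization but the record does not say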
Target sequence (P41235 whole entry, looked up): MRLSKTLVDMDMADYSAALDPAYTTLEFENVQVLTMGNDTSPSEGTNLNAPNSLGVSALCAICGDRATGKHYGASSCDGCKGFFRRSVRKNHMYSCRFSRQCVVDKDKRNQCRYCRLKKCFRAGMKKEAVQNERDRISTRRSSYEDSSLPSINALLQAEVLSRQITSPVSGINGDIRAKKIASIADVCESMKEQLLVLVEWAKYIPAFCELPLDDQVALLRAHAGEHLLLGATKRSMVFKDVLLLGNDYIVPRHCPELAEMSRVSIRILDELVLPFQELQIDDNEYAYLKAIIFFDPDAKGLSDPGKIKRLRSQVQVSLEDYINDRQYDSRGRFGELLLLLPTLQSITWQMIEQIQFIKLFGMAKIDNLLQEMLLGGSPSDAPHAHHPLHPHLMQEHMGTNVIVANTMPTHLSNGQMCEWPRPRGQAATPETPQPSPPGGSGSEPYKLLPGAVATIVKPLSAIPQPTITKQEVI
Vif TR-FRET – inhibitors of Vif binding to APOBEC3G peptide, primary screen, biochemical, TR-FRET, GST-Vif 1-94, biotin-A3G peptide, dose response retest (AID 1117319) | 260,000 tested, 0.57% active | one-dose inhibition, %; IC50 in µM for titrated hits | Virion infectivity factor (Human immunodeficiency virus type 1 group M subtype B (isolate … | TR-FRET GST-Vif / biotin-A3G peptide binding; higher % means a stronger effect; test concentration not given here; strong numbers were not always called active;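 active = above the screen mean plus three standard deviations and confirmed in dose response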;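 note: Vif residues 1-94 fused to GST binding biotinylated APOBEC3G peptide 110-148; 0% = full assay without inhibitor and 100% = GST in place of GST-Vif; retest series ran down from 100 µM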
Ecoli rRNA inh OD600 – also measured in Ecoli rRNA inh; calls as there; OD600 change, %; measured here: OD600 growth;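 optical density of the mix in the first replicate; 0 = DMSO median and -100 = no signal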
Ecoli rRNA inh RFP – second read-out of Ecoli rRNA inh, no call of its own (marks repeat the call); RFP signal change, %; measured here: RFP humanized mutant strains;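 first replicate; 0 = DMSO median and -100 = no signal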
Starred values were filed as active, the others as inactive; i = inactive; · = not tested or not shown; & = joins results of further samples.

SMILES	ALR H2O2 inh	Ecoli growth	Ecoli rRNA inh	Ecoli rRNA inh OD600	Ecoli rRNA inh RFP	FGF22 binding	AF4-AF9 inh	HNF4A DNA FP	Vif TR-FRET
O=C(COC(=O)C1COc2ccccc2O1)NC1CCS(=O)(=O)C1 (centres undefined)	-4	0.7	8	6	-1.2	·	·	0.2	2%
O=C(CSc1nnc(C2CCCCC2)n1-c1ccccc1)NCc1ccco1	5	0.64	·	·	·	·	·	4.2	3%
Cc1cc(N2CCN(C)CC2)n2nc(-c3ccc(Cl)cc3)nc2n1	68	0.65	10	17	6.1	i	0.1	-2.3	4%
CC(=O)Nc1cccc(NC(=O)c2ccccc2OCc2c(C)noc2C)c1	-9	0.66	-3	6	0.8	i	3.8	-1.6	5%
Cc1ccc(Cl)cc1NC(=S)N1CCCCCC1	-13	0.7	·	·	·	·	·	1.8	·
CCCCCCC(C)n1[nH]c(=O)c2c(C)cc(C)nc21 (centres undefined)	-5	0.67	4	3	1.1	i	-4.6	3.4	-4%
CCN(CC)CCNc1nc(-c2ccco2)c2c(c1C#N)CC(C)(C)OC2	0	0.72	7	0	-2.4	·	·	0.5	17%
C[C@H](O)C#Cc1ccc([C@H]2[C@H](CO)N3CCCCN(C(=O)Nc4ccccc4)C[C@@H]23)cc1	·	·	-2	8	2.2	i	0.7	·	·
Cn1cc(CN(CCCN2CCOCC2)C(=S)Nc2cccc(Cl)c2)c2ccccc21	-4	·	-10	-17	-10	i	12	-2.4	·
CCC(=O)N(C)C[C@@H]1Oc2ncc(C#Cc3ccccc3OC)cc2C(=O)N([C@H](C)CO)C[C@@H]1C	·	·	7	9	-0.4	i	-5.4	·	·
CCOC(=O)c1ccc(NC(=O)[C@@H]2CCC(=O)N2C2OC(=O)c3c2ccc(OC)c3OC)cc1 (some centres undefined)	·	·	·	·	·	i	-1.5	0.1	·
O=C(C[C@H]1CC[C@H](NC(=O)c2cccc(F)c2)[C@@H](CO)O1)NCc1ccc(Oc2ccccc2)cc1	·	·	3	6	3.6	i	0.6	·	·
Cc1ccccc1S(=O)(=O)NCC[C@H]1CC[C@H](NC(=O)C2CCCC2)[C@@H](CO)O1	·	·	2	11	1.6	i	-0.9	·	·
C[C@H]1CN([C@@H](C)CO)C(=O)c2ccccc2-c2ccccc2CO[C@H]1CN(C)C(=O)c1ccccc1	·	·	-2	3	-3.8	i	-5.7	·	·
CC(Sc1nnnn1C)C(=O)NC1CCCc2ccccc21 (centres undefined)	-2	0.7	6	5	-5.9	i	-1.6	-1.3	0%
O=C(O)c1ccccc1C(=O)Nc1c(-c2ccccc2)nc2ccccn12	2	0.67	6	6	1.7	i	-5.5	-0.3	4%
COc1cc(-c2ccccc2)[nH]c(=S)n1	-3	0.7	5	2	5.3	i	3.3	-8.8	·
CCOC(=O)C1CCN(C(=O)COC(=O)c2ccccc2OCC)CC1	-4	0.71	0	1	0.9	i	-0.2	-2.4	-10%
CC1(C(=O)Nc2ccc3c(c2)OCO3)CCN1C(=O)Cc1cccc2ccccc12 (centres undefined)	·	·	-6	-3	1.6	i	-1.2	5.0	·
COc1ccccc1CNC(=O)C[C@H]1CC[C@@H]2[C@H](COC[C@H](O)CN2Cc2ccc3c(c2)OCO3)O1	·	·	-2&6	4&-10	0.7&3.0	i	4.1&-2.7	1.0	·
COc1ccc(NS(=O)(=O)NC(=O)c2c[nH]c3ccccc23)cc1	1	0.73	-1	13	-3.1	i	3.1	-0.5	4%
NC(=O)[C@H]1CC2(CC(c3cccc(NC(=O)c4ccccc4)c3)=NO2)CN1C(=O)[C@H]1CCC(=O)N1 (some centres undefined)	0	·	24	15	-5.0	i	-3.0	-5.3	-1%
O=C(CCCC(=O)NCc1ccccc1)NCc1ccccc1	·	0.69	·	·	·	·	·	-1.2	-3%
O=C(NCc1n[nH]c(=S)n1-c1ccccc1Cl)c1ccc(S(=O)(=O)N2CCCCC2)cc1	21	0.65	·	·	·	i	-5.1	-3.5	-6%
CO[C@@H]1CN(C)C(=O)c2ccc(NC(=O)C3CCCC3)cc2OC[C@H](C)N(C(C)=O)C[C@@H]1C	·	·	0	-2	-0.7	i	1.2	·	·
CC(C)C(C(=O)OCC(=O)c1cccc([N+](=O)[O-])c1)N1C(=O)[C@@H]2[C@H]3CC[C@H](C3)[C@@H]2C1=O (some centres undefined)	-10	0.64	-9	2	3.5	i	0.1	-2.9	2%
Cc1ccccc1-c1ccc2c(c1)O[C@@H](CN(C)Cc1ccncc1)[C@@H](C)CN([C@@H](C)CO)S2(=O)=O	·	·	-37	-56	28	i	7.6	·	·
CO[C@H]1CN(C)C(=O)c2cc(NS(=O)(=O)CC(F)(F)F)ccc2OC[C@@H](C)NC[C@H]1C	·	·	3	1	-2.0	i	-1.8	·	·
CN(C)CCN(C(=O)c1ccccc1Cl)c1nc2c(Cl)cccc2s1	-9	0.69	·	·	·	·	·	1.1	·
CCCS(=O)(=O)N1CCN(Cc2ccc3c(c2)c2ccccc2n3CC)CC1	-24	0.75	·	·	·	·	·	-3.0	33%
O=C(N/N=C/c1cn[nH]c1-c1ccccc1)c1ccco1	-1	·	-3	-4	7.0	i	0.7	-3.0	·
S=C1NC[C@H](Cc2ccccc2)N1CC1CCN(CCCC2CCCC2)CC1	·	·	-2	2	-2.4	i	9.5	3.1	-9%
COc1cc(/C=C2/C(=N)N3C=CSC3=NC2=O)ccc1OCCOc1ccc(NC(C)=O)cc1	-1	0.65	2	5	1.6	i	3.6	-3.2	-10%
CCN(CC)c1ccc(CC(=O)NC(C)Cc2ccccc2)cc1 (centres undefined)	100*	0.7	·	·	·	·	·	1.3	23%
O=C(Nc1ccc([N+](=O)[O-])cn1)C1CC1	-6	0.56	·	·	·	·	·	1.2	·
COCCNC(=O)C[C@H]1CC[C@@H]2[C@H](COc3ccc(NC(=O)c4cc(C)on4)cc3C(=O)N2C)O1	·	·	3	0	0.4	i	-0.6	·	·
O=S(=O)(c1ccc(Cl)cc1)N1CCCC1c1nc2ccccc2s1 (centres undefined)	-3	0.72	·	·	·	·	·	1.5	-6%
OC(c1cccc(Cl)c1)c1nc(-c2ccc3c(c2)OCO3)cs1 (centres undefined)	·	·	-63	-62	-9.7	i	-0.6	-5.8	·
O=C(c1ccc(Cl)s1)N1CCN(c2ncccn2)CC1	-1	0.7	1	-2	-2.1	i	-17	-4.3	-3%
CCCNC(=O)C12CCC(C)(C(=O)O1)C2(C)C (centres undefined)	-16	0.63	8	14	-1.1	i	-1.1	0.8	-4%
Cc1cccc(Oc2ccc(NC(=O)C3=CC=CN4CCS(=O)(=O)N=C34)cc2)c1	3	0.71	·	·	·	i	-3.3	-1.3	-7%
CC=Cc1ccc2n(c1=O)C[C@@H]1[C@@H](CO)[C@H](C(=O)N(C)C)[C@H]2N1Cc1cc(F)ccc1F (mixture of isomers)	·	·	-1	4	1.9	i	0.6	·	·
COCCN(C(=O)COC(=O)C12CC3CC(CC(C3)C1)C2)c1c(N)n(Cc2ccccc2)c(=O)[nH]c1=O	·	0.71	3	10	-1.4	i	-5.4	0.1	·
Cc1ccc(S(=O)(=O)N2CCN(C(=O)c3n[nH]c4ccccc34)CC2)cc1	2	0.72	0	0	-3.1	i	4.9	-1.9	-7%
O=C(O)C(Cc1c[nH]c2ccccc12)NS(=O)(=O)c1ccc2ccccc2c1 (centres undefined)	-8	0.72	1	-1	0.8	·	-3.4	4.9	7%
Cc1cc(C(=O)Nc2cccnc2)no1	-13	0.67	13	6	-4.3	i	7.9	6.5	12%
O=c1c(Cl)c(Nc2cccc(Cl)c2)cnn1-c1nc2ccccc2s1	-23	0.68	·	·	·	·	·	4.0	·
C[C@@H]1CN([C@@H](C)CO)C(=O)c2cc(NC(=O)Nc3ccc4c(c3)OCO4)ccc2O[C@@H](C)CCCCO[C@@H]1CN(C)C(=O)Nc1ccc2c(c1)OCO2	·	·	3	3	1.3	i	1.8	·	·
O=C(CCN1CCCC1)c1cccs1	98*	0.69	13	13	3.9	i	2.7	-2.1	0%
Cc1ccc(C)c(C(Nc2ccccc2)c2ccc3ccc(C)nc3c2O)c1 (centres undefined)	·	·	-11	-7	-1.8	i	·	2.1	·
O=C(O)CC1(CC(=O)NCc2ccccn2)CCCCC1	-5	0.68	2	-2	-0.9	i	-1.1	5.1	-8%
O=C(Nc1ccc(S(=O)(=O)N2CCCC2)cc1)c1ccc([N+](=O)[O-])cc1	40	0.67	2	4	0.9	i	-1.6	0.8	-6%
COc1ccc(/C=N/Nc2cc(C)nc(N3CCOCC3)n2)cc1	-2	·	4	18	2.0	i	-2.2	7.3	9%
Cc1ccc(S(=O)CCNC(=O)Cc2ccccc2)cc1 (centres undefined)	0	0.67	10	16	2.5	i	-1.2	-0.3	-5%
O=C(COc1ccc(-n2cnnn2)cc1)N1CCN(c2ccc(F)cc2)CC1	3	0.68	·	·	·	·	·	-2.0	1%
Cc1noc(C)c1C(=O)Nc1cccc2ncccc12	-20	0.7	6	1	-3.5	i	-2.9	4.9	·
O=C(CSc1nnc(-c2ccccc2Cl)o1)Oc1ccc(Br)cc1	-8	·	·	·	·	·	·	-1.0	-4%
C[C@@H]1CN([C@@H](C)CO)S(=O)(=O)c2ccc(Br)cc2O[C@H]1CN(C)C(=O)C1CCC1	·	·	8&4	3&18	3.4&-3.6	i	-14&-2.7	6.6	-6%
COc1ccc(OC)c(CNC(=O)CCCn2ccc3cc(S(=O)(=O)N4CCCC4)ccc32)c1	-22	0.65	-6	-24	0.2	i	6.3	-1.9	·
C[C@@H]1CN([C@@H](C)CO)C(=O)c2cc(NC(=O)Cn3cnnn3)ccc2O[C@@H]1CN(C)Cc1ccc(C(=O)O)cc1	·	·	1	5	-0.7	i	-3.4	·	·
Cc1onc(-c2ccccc2Cl)c1C(=O)OCC(=O)Nc1cccc(S(=O)(=O)N2CCOCC2)c1	-8	0.69	-26	-18	-0.3	·	-0.5	1.2	3%
COCC(=O)N1[C@H](CO)[C@H]2c3ccccc3N(C(=O)Nc3cc(F)ccc3F)C[C@H]21	·	·	-1	1	-3.9	i	-2.1	·	·

Screening data deposited in PubChem by several laboratories.

Not all compounds are listed; rates above refer to the full screens.
